Compound activity: PubChem, several laboratories
HNF4A DNA FP: change in binding of human HNF4A to DNA, primary screen, biochemical, fluorescence polarization, FITC-DNA; Hepatocyte nuclear factor 4-alpha (Homo sapiens), P41235; 1 h; activity change, % at 10 µM; 0.3% of 360,000 active; AID 1224865, 2016; in the data active = activity change above about 30%, passing the limit was not always enough;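 note: controls were the assay level and a saturating level of protein; the project sought stronger binding though the title names inhibitors; some compounds called inactive have numbers as strong as hits; positive values seem to mean higher polarization but the record does not say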
LANA-H2B inh: blockers of LANA interaction with H2A/H2B – biochemical, FP readout, HTS, primary screen. 0.6% of 320,000 active. AID 2629, 2010. cell-free LANA-H2A/H2B peptide, fluorescence polarization. inhibition, % (test concentration not listed); in the data active = inhibition mostly above about 10%, no sharp cut-off; inactive = mostly below about 6.7%;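 note: stock transfer was 7.5 nL into about 10 µL; 0% = median of vehicle wells and 100% = median of positive control wells; one replicate is shown; the record names a cut of 25% in any replicate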
Target sequence (Q9QR71 whole entry, looked up): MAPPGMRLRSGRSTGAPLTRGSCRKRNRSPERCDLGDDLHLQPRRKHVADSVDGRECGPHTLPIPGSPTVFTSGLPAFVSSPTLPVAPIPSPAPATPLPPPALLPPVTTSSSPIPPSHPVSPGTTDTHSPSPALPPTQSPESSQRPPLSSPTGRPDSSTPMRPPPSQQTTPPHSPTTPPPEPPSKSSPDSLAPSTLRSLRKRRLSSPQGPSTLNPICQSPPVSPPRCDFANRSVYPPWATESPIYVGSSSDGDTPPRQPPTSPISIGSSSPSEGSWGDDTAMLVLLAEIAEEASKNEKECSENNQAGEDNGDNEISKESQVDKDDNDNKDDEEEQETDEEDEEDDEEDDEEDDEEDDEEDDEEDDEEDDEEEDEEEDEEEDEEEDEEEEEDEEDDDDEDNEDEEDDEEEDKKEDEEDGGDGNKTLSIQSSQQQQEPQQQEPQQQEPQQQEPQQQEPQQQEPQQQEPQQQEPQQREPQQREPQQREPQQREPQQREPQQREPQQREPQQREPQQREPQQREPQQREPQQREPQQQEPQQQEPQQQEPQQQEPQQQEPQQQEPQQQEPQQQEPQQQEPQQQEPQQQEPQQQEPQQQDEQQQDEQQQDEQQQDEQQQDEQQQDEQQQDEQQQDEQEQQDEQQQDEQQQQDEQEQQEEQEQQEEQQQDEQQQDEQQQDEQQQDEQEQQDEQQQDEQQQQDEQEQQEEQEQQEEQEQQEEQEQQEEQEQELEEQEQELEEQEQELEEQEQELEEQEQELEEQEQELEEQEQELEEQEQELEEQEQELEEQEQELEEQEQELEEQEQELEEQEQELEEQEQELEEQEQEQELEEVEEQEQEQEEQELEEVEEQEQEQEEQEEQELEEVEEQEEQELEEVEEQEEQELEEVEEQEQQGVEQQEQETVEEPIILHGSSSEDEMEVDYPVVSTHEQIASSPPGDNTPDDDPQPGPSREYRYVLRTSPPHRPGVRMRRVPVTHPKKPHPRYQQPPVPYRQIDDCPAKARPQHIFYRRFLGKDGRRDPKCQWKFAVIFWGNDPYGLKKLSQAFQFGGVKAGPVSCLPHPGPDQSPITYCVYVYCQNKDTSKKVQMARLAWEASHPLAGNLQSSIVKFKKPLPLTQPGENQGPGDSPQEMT
FGF22 binding: binders of human FGF22 protein, primary screen, FGF22 synaptogenesis inhibitor project, biophysical, thermal shift, single point; 1.5% of 340,000 active; calls only at 9.99 µM; Fibroblast growth factor 22 (Homo sapiens), Q9HCT0; recombinant FGF22 thermal shift, SYPRO orange fluorescence; percent of sucrose octasulfate shift, DMSO zero;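 active = melting point raised past a set limit in the mean and every replicate; three in four hits are not shown here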
UCH37 DUB inh: inhibitors of human UCH37 deubiquitinase, primary screen, biochemical, Ub-AMC cleavage, fluorescence; Ubiquitin carboxyl-terminal hydrolase isozyme L5 (Homo sapiens), Q9Y5K5; inhibition, % (concentration not given with the values); purified proteasome/UCH37; 0.33% of 330,000 active;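 active = mean of two replicates above 20%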;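 note: 0% = compound-free wells with enzyme and 100% = wells lacking proteasome; stock transfer was 100 nL into about 20 µL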
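assay system = human UCH37 enzyme supplied as purified proteasome complex | amount = proteasome at 0.15 nM in the dispensed enzyme solution | schedule = 30 min compound-proteasome preincubation then 25 min substrate reaction, room temperature | measured by = fluorescence, ex 355 nm, em 460 nm | benchmarks = no-proteasome wells (full inhibition) and compound-free wells (no inhibition)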
ALR inh: inhibitors of human ALR sulfhydryl oxidase, primary screen, biochemical, H2O2 detection, HRP-luminol luminescence, single point; FAD-linked sulfhydryl oxidase ALR (Homo sapiens), P55789; purified ALR, DTT oxidation; inhibition, % (test concentration not listed); 3.8% of 290,000 active; AID 485317, 2010;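 active = mean and each replicate at 75% or more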;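 note: stock transfer was 7.5 nL into about 7.5 µL; 0% = neutral wells and 100% = wells with inactivated enzyme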
B2AR ag: beta2AR agonists driving receptor internalization, primary screen, cell-based, FAP fluorogen, flow cytometry; Beta-2 adrenergic receptor (Homo sapiens), P07550; Am2.2-beta2AR cells; reference of the scale not given here; response, % (test concentration not listed); 0.43% of 340,000 active; AID 504454, 2011;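 active = response above a set limit, near 3 SD of response in nonfluorescent compounds, cut at about 42% in these data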;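 note: stock transfer was 100 nL into about 11 µL; a reference agonist was the positive control; negative values mostly stem from fluorescent compounds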
E coli growth: E. coli growth inhibition, primary screen, OD600; Escherichia coli growth, 23 h; stronger effect = lower value; AID 1053175, 2014; OD600 absorbance (concentration not given with the values); 0.21% of 330,000 active;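 active = OD600 absorbance below the run mean of sample wells minus 3.6 SD, in any replicate, cut at about 0.56 in these data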;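 note: stock transfer was 300 nL into about 60 µL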
* = called active by the depositor; i = inactive; nt = not tested or not shown; & = joins results of further samples.

smiles	UCH37 DUB inh	LANA-H2B inh	HNF4A DNA FP	FGF22 binding	ALR inh	E coli growth	B2AR ag
O=C(/C(=N\Nc1ccc([N+](=O)[O-])cc1)Sc1nnnn1-c1ccccc1)c1ccccc1	nt	3.9	1.1	nt	1	nt	10
O=c1c(S(=O)(=O)c2ccc(Cl)cc2)cn(Cc2ccccc2F)c2ccc(F)cc12	6.3	3.5	3.8	i	8	0.73	-9
N#Cc1c(NC(=S)NC(=O)c2ccccc2)sc2c1CCC2	nt	-3.9	20	i	5	nt	-7
Cc1ccc(SCc2cc(-c3ccc(Cl)cc3)on2)cc1	2.5	-0.5	-1.4	nt	-9	0.75	-4
COc1ccc(N(CC(=O)Nc2ccccc2C(=O)N2CCOCC2)S(=O)(=O)c2ccc(F)cc2)cc1	-1.3	3.5	0.4	nt	1	0.69	0
CCOc1ccc(NC(=O)CN(C2CCCCC2)S(C)(=O)=O)cc1	7.2	1.2	8.3	nt	-8	0.67	2
Clc1ccccc1CSc1nnc(-c2ccco2)c(-c2ccco2)n1	7.3	6.3	-23	nt	100*	0.61	-3
Cc1cc2ccccn2c1C(=O)c1ccc(NN)c([N+](=O)[O-])c1	1.6	0.1	1.7	i	1	0.7	-8
Nc1ccc2nc(CCCCCCCCc3nc4ccc(N)cc4[nH]3)[nH]c2c1	4.1	3.5	9.7	i	96*	0.68	-4
CCc1ccccc1NC(=O)c1nnn(CC(=O)Nc2cccc(C)c2C)c1N	-2.0	-10	-2.7	nt	-11	0.7	12
CCC1CCCCN1S(=O)(=O)c1ccc(S(=O)(=O)N2CCN(S(=O)(=O)CC)CC2)cc1 (stereo unspecified)	-0.8	8.5	2.1	nt	-3	0.76	-1
O=C(CSc1nc(O)cc(=O)[nH]1)N1c2ccccc2Sc2ccccc21	4.9	1.7	-1.2	i	99*	0.69	-5
CCCC/C=C/C(NC(=O)c1ccc(-c2ccccc2)cc1)c1ccccc1 (stereo unspecified)	5.8	2.6	-0.5	i	1	nt	2
COc1cccc(/C=C(\C)C(=O)c2c(C)cc(C)[nH]c2=O)c1OC	2.2	0.0	1.4	i	-1	0.64	-8
O=C(Cn1ncnn1)OCc1ccccc1Cl	-2.0	0.3	4.7	nt	-1	0.68	-3
N#Cc1cnn2cc(-c3ncc(C(F)(F)F)cc3Cl)cnc12	-12	-3.5	0.8	nt	85*	0.7	-2
COc1ccccc1C1C(C(=O)c2ccco2)=C(O)C(=O)N1c1cc(C)on1 (stereo unspecified)	6.0	-0.8	2.2	i	-1	0.63	-2
CN(C)S(=O)(=O)c1ccc(S(=O)(=O)Nc2ccc3c(c2)oc2ccccc23)cc1	2.0	3.5	0.8	nt	-2	0.73	7
COc1ccc(NC(=O)C(NC(=O)CNC(C)=O)c2ccc(C)cc2)cc1 (stereo unspecified)	-0.2	3.9	4.6	nt	nt	0.69	-1
CSc1ccc(/C=N/Nc2nc(C)cc(=O)[nH]2)cc1	nt	-3.6	0.2	i	17	nt	-4
CC(C)C1OC2(C)OC(=N)C1(C#N)C(C#N)(C#N)C2c1ccccc1 (stereo unspecified)	-441	4.5	-0.1	i	-17	0.64	-19
Cc1ccc(NC(=O)COc2cccc3c2OC(C)(C)C3)c(O)c1	5.4	1.9	2.1	i	48	0.67	-2
Cc1cccc(C)c1NC(=O)CNC(=O)CCCN1C(=O)c2cccc3cccc(c23)C1=O	-51	1.5	3.4	i	nt	0.69	5
COc1ccc(C(=O)N/C(=C\c2cccs2)c2nc3ccccc3[nH]2)cc1OC	-12	7.5	-3.8	nt	-2	0.71	1
COc1ccc(Cc2c(O)nc(SCC(=O)NC34CC5CC(CC(C5)C3)C4)[nH]c2=O)cc1	4.4&12	-0.6&2.8	4.4&-1.2	i	24&9	0.71&0.7	0&-2
COc1cc(OC)cc(C(=O)NCC(=O)Nc2ccc(-c3ccccc3)cc2)c1	1.4	0.0	1.6	i	-4	0.69	27
O=C(CN(CC1CCCO1)C(=O)Cn1nnc(-c2ccc(F)cc2)n1)NC1CCCCC1 (stereo unspecified)	-1.6	0.3	-2.3	i	-13	0.73	3
O=C(NCCc1ccccc1)C(=O)NCC1OCCCN1S(=O)(=O)c1cc(F)ccc1F (stereo unspecified)	1.6	-3.0	8.0	i	-1	0.68	2
Cc1cc(NC(=O)c2cccc(S(=O)(=O)N3c4ccccc4CC3C)c2)no1 (stereo unspecified)	2.7	-2.2	-4.6	i	-1	0.7	-7
COc1cccc(C(=O)NC2CCCN(C3Cc4ccccc4C3)C2)c1OC (stereo unspecified)	-2.0	1.0	-1.1	i	nt	0.71	-5
CC(C)NC(=O)C(C)N1CCN(S(=O)(=O)c2ccc3ccccc3c2)CC1 (stereo unspecified)	1.5	-1.4	4.1	i	-5	0.69	-7
Cc1ccc(C2(c3noc(CN(C)CC4COCCO4)n3)CCCC2)cc1 (stereo unspecified)	2.7	-2.2	-1.6	i	11	0.69	-2
O=C(C1CCCN(Cc2ccccc2[N+](=O)[O-])C1)N1CCCCC1 (stereo unspecified)	1.1	3.2	2.5	i	-3	0.61	-6
Cc1cc(NC(=O)C(C)C)ncc1NC(=O)c1ccccn1	3.1	0.8	-4.2	i	-8	0.69	-2
CCS(=O)(=O)c1ccc2oc(SCC(=O)NCCC3=CCCCC3)nc2c1	6.5	-0.9	-0.7	nt	-3	0.67	1
CN(C)S(=O)(=O)c1cccc(NC(=O)COC(=O)CCc2nc3ccccc3s2)c1	-1.2	-0.6	3.3	nt	nt	0.77	7
CC(OC(=O)Cn1c(C(F)(F)F)nc2ccccc21)C(N)=O (stereo unspecified)	1.4	-12	2.4	nt	-20	0.68	1
O=C(NCCc1ccccc1)c1ccc2c(c1)S(=O)(=O)c1cc(Cl)ccc1C2=O	-1.8	1.4	-1.0	i	2	0.69	-17
CCC1Sc2ccc(S(=O)(=O)CCC(=O)Nc3ccc(OC(F)(F)F)cc3)cc2NC1=O (stereo unspecified)	1.7	2.9	-0.7	i	-6	0.72	-1
CN(C)c1ccc(C2C3=C(CCCC3=O)OC3=C2C(=O)CCC3)cc1	0.5	-2.1	-1.0	nt	42	0.69	2
FC(F)(F)c1cccc(Nc2cc(-c3ccccc3)nc3ncnn23)c1	2.8	0.7	6.1	i	-6	0.68	-11
NS(=O)(=O)c1ccc(CCNC(=O)c2ccccc2OCc2ccc(F)cc2)cc1	-0.6	-0.7	1.6	i	3	0.7	-14
COCCCNC(=O)C(C#N)c1nc2ccccc2nc1N1CCN(Cc2ccccc2)CC1 (stereo unspecified)	-0.5	nt	2.9	nt	nt	0.73	-4
O=C(Nc1ccccc1-c1nnn(CC(=O)N2CCN(c3ccccc3)CC2)n1)c1cccs1	-7.5	1.0	10	i	-2	0.72	1
Cc1cccc(N2CCN(C(=O)c3cccc(N4CCCC4=O)c3)C(C)C2)c1 (stereo unspecified)	0.8	4.5	-4.6	i	53	0.7	-3
CC1CN(C(=O)c2cc3cc(Br)ccc3[nH]2)CC(C)O1 (stereo unspecified)	1.0	-3.1	5.5	i	1	0.65	-4
COC(/C=C/Nc1ccc(Cl)cc1)=C(C#N)C#N	2.5	5.0	-6.2	i	-1	0.65	2
O=C(CSc1nnnn1Cc1ccccc1)c1ccccc1F	2.2	-0.2	1.1	i	19	0.66	-2
Cc1nc(SCC(=O)N(CC(C)C)C2CCS(=O)(=O)C2)c(C#N)c(C)c1C (stereo unspecified)	2.7	nt	-3.1	i	nt	0.71	-3
CN(C(=O)/C(N=Nc1cccc(C(F)(F)F)c1)=C(\O)C(F)(F)F)c1ccccc1	3.2	-6.1	2.1	nt	4	0.65	1

Further structures
smiles	UCH37 DUB inh	LANA-H2B inh	HNF4A DNA FP	FGF22 binding	ALR inh	E coli growth	B2AR ag
COc1ccc(NC(=O)CN(C)C(=O)Cc2n[nH]c(=O)c3ccccc23)cc1	5.7	-1.4	8.1	i	-5	0.69	7
Cc1ccc(C)n1-n1c(C)nc2scc(-c3cccs3)c2c1=O	5.4	-1.2	-0.6	nt	nt	0.68	13
O=c1oc(-c2ccccc2NS(=O)(=O)c2ccc(F)cc2)nc2ccccc12	-9.5	1.8	-1.1	i	-1	0.69	6
CCN1CCN(C(=O)CSc2ccc(C)cc2)CC1	1.4	0.6	-2.3	i	-5	0.7	11
CC(=O)Nc1ccc(Oc2cnccn2)cc1	1.8	0.6	-3.0	nt	nt	0.64	-5
CC(C)CCn1c2ccccc2c2cc(CC(N)=O)ccc21	-0.2	-1.5	-2.8	i	nt	0.63	-3
O=C(CCC(=O)c1ccccc1)NCc1ccccc1	0.2	0.7	0.0	i	nt	0.72	6
COC(=O)C(Cc1c[nH]c2ccccc12)NC(=O)C1CC1 (stereo unspecified)	4.0	7.9	2.4	i	6	0.71	0
Cc1ccc2oc(C(=O)N3CCC(C(N)=O)(N4CCCCC4)CC3)c(C)c2c1	5.5	1.9	-1.4	i	-2	0.7	-3
CCOC(=O)c1[nH]c(C)c(C(=O)Nc2ccc(C)cc2C)c1C	1.5	3.1	-1.5	nt	15	0.68	-3

Filtered by structure, the entries above with a cyano group (six)
smiles	UCH37 DUB inh	LANA-H2B inh	HNF4A DNA FP	FGF22 binding	ALR inh	E coli growth	B2AR ag
N#Cc1c(NC(=S)NC(=O)c2ccccc2)sc2c1CCC2	nt	-3.9	20	i	5	nt	-7
N#Cc1cnn2cc(-c3ncc(C(F)(F)F)cc3Cl)cnc12	-12	-3.5	0.8	nt	85*	0.7	-2
CC(C)C1OC2(C)OC(=N)C1(C#N)C(C#N)(C#N)C2c1ccccc1 (stereo unspecified)	-441	4.5	-0.1	i	-17	0.64	-19
COCCCNC(=O)C(C#N)c1nc2ccccc2nc1N1CCN(Cc2ccccc2)CC1 (stereo unspecified)	-0.5	nt	2.9	nt	nt	0.73	-4
COC(/C=C/Nc1ccc(Cl)cc1)=C(C#N)C#N	2.5	5.0	-6.2	i	-1	0.65	2
Cc1nc(SCC(=O)N(CC(C)C)C2CCS(=O)(=O)C2)c(C#N)c(C)c1C (stereo unspecified)	2.7	nt	-3.1	i	nt	0.71	-3

Some of the compounds tested (hit frequency here may not be typical).
